TexasRed autofl = qHTS Assay for Spectroscopic Profiling in Texas Red Spectral Region. Compound fluorescence, Texas Red channel, 547/618 nm; active compounds read high. max dye-equivalent concentration, M. hit rate 0.06% among 59,000. AID 587, 2007; in the data active = max dye-equivalent concentration above about 10 nM; inconclusive = between about 1.1 nM and that limit
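Fluorescence at ex 547/em 618 nm, normalized against an on-plate Texas Red standard series to give dye-equivalent concentration per compound concentration. Buffer 100 mM Tris, pH 8.0; 15 min RT incubation before CCD imaging.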
Fluorescein autfl = qHTS Assay for Spectroscopic Profiling in Fluorescein Spectral Region; Compound autofluorescence, 480/540 nm, fluorescein-equivalent; active compounds read high; max fluorescein-equivalent concentration, M; hit rate 0.91% among 59,000; AID 593, 2007; in the data active = max fluorescein-equivalent concentration above about 10 nM; inconclusive = between about 1.1 nM and that limit
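In this qHTS profile, compound fluorescence was measured with a 480 nm/540 nm filter pair following a 15-min room-temperature incubation in 100 mM Tris (pH 8.0). A six-point fluorescein series on each plate served for normalization.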
BRCT PPI green = qHTS Assay for Inhibitors of BRCT-Phosphoprotein Interaction (Green Fluorophore); BRCA1 BRCT-phosphopeptide binding, green fluorescence polarization; Breast cancer type 1 susceptibility protein (Homo sapiens), P38398; hit rate 0.05% among 75,000; Potency, µM (titrated, usually from 76.9 µM), for inactives: at the highest dose activity change, negative = inhibition, hits mostly inhibitors;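 also: potency is read from the fitted curve at half-maximal effect; plate controls were peptide without protein for full effect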
Target sequence (P38398 whole entry, looked up): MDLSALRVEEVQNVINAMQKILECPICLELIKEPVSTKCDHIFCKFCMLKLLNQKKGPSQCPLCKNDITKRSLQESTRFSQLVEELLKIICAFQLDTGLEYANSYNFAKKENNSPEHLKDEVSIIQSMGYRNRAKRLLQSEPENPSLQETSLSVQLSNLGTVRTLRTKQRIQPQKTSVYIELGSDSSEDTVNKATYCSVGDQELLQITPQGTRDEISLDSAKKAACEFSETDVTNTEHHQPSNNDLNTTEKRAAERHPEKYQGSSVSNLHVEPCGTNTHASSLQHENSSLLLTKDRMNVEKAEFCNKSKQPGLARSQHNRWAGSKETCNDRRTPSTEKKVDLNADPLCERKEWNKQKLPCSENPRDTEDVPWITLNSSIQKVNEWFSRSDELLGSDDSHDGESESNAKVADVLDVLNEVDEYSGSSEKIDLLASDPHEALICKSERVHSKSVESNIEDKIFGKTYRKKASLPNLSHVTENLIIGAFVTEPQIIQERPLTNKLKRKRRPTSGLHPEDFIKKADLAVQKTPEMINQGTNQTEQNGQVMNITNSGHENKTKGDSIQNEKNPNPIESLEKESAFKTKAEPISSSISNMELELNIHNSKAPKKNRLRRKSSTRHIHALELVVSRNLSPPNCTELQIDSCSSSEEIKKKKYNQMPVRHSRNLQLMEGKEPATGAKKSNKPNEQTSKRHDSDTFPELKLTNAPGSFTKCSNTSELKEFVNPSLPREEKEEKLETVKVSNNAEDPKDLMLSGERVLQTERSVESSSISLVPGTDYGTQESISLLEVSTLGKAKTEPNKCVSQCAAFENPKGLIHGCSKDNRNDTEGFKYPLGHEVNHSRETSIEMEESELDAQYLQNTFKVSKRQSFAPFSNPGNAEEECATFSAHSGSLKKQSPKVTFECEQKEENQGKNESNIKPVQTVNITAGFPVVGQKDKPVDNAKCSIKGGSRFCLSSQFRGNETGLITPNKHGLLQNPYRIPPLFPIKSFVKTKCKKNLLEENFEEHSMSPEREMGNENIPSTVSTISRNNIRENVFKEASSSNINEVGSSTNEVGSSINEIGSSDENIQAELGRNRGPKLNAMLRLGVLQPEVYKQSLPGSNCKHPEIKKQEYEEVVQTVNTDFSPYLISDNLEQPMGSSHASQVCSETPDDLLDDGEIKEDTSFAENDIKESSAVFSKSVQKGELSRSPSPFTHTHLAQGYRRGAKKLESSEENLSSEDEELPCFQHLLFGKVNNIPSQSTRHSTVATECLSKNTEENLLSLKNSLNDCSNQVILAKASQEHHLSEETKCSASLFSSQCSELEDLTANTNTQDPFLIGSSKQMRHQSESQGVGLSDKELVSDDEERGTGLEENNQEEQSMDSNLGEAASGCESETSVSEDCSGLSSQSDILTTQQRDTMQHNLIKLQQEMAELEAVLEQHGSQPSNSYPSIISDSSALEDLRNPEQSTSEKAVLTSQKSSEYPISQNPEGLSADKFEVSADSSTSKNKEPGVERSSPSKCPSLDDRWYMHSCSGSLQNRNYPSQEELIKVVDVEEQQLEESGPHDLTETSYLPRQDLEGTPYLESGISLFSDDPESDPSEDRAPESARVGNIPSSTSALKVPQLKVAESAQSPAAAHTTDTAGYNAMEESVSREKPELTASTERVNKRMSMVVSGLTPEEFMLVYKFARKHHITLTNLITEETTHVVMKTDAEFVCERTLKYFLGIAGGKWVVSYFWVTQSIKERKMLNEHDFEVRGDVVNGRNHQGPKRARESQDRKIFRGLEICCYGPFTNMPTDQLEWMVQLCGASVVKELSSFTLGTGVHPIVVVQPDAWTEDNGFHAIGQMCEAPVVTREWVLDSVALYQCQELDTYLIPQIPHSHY
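Fluorescence polarization: His-tagged BRCT (~35 kDa BRCA1 C-terminus, 250 nM) bound to 100 nM fluorescein-labeled phosphorylated 10-aa BACH1 peptide, pH 7.3 phosphate buffer with DTT and Tween 20. Compounds incubated 12 min at room temperature; inhibition read as lowered polarization.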
BRCT inh red = qHTS Assay for Inhibitors of BRCT-Phosphoprotein Interaction (Red Fluorophore); Breast cancer type 1 susceptibility protein (Homo sapiens), P38398; BRCT-phosphopeptide binding, red fluorescence polarization; Potency, µM (titrated, usually from 76.9 µM), inactives show at the top dose activity change, negative = inhibition, usual class: inhibitors; hit rate 0.03% among 75,000; also: % is scaled to controls: 0 for no effect and ±100 for the full control effect
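Fluorescence polarization: 100 nM His-tagged BRCA1 BRCT with 100 nM TAMRA-labelled phospho-BACH1 decapeptide, phosphate buffer pH 7.3 with 150 mM NaCl, DTT, 0.01% Tween 20; 12 min RT. Binding inhibition seen as FP decrease.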
Rhodamine autofl = qHTS Assay for Spectroscopic Profiling in Rhodamine Spectral Region | Rhodamine-region fluorescence, 547/598 nm, Tris buffer; active compounds read high | max dye-equivalent concentration, M | hit rate 0.05% among 59,000; in the data active = max dye-equivalent concentration above about 11 nM; inconclusive = between about 1.1 nM and that limit
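Steps: pin-transfer compounds into pH 8.0 Tris (100 mM), hold 15 min at room temperature, image with a 547/598 nm filter pair, and convert intensities to rhodamine-equivalent concentration using a six-point on-plate rhodamine series.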
USP2a inh = qHTS Assay for Inhibitors of Ubiquitin-specific Protease USP2a; USP2a enzymatic assay, qHTS inhibition; Potency, µM (doses to about 38.3 µM), for the others: at the top dose activity change, negative = inhibition, most hits filed as inhibitors; hit rate 0.1% among 60,000;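 also: potency is read from the fitted curve at half-maximal effect; nearly all actives have a fitted effect of over 60% in size; plate controls were DMSO for no effect and NEM full inhibition control for full effect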
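USP2 core (20 nM final) was preincubated with compound for 30 min at RT in 20 mM Tris-HCl pH 8.0, 2 mM CaCl2, 2 mM beta-mercaptoethanol; Ub-PLA2 (20 nM) plus NBD C6-HPC (20 uM) then added, fluorescence read after 2.5 h.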
* = called active by the depositor; i = inactive; ? = inconclusive; nt = not tested or not shown; & = joins results of further samples; [ ] = another dose, or the depositor's remark. Unless noted, calls follow the shape of the dose curve; as a rule, active = well fitted inhibition curve with a large enough effect; inconclusive = small, poorly fitted or top-dose-only effect; inactive = no such curve, though single readings can be large or run the other way.

Short forms – A = TexasRed autofl; B = Fluorescein autfl; C = BRCT PPI green; D = BRCT inh red; E = Rhodamine autofl; F = USP2a inh
O=c1ccc2cc(O[C@H]3O[C@@H](CO)[C@@H](O)[C@@H](O)[C@@H]3O)c(O)cc2o1
  A = ? | B = i | C = -1.4%[34.4 µM] | D = -0.6%[34.4 µM] | E = i | F = 2%[17.1 µM]
CC(=O)[C@H]1CC[C@H]2[C@@H]3CC[C@H]4C[C@H](O)CC[C@]4(C)[C@H]3C(=O)C[C@]12C
  A = ? | B = i | C = -1.1% | D = -3.6% | E = i | F = 1%
C=CCc1ccc(OC)cc1
  A = nt | B = nt | C = -3.3%[3.08 µM] | D = 0.8% | E = nt | F = -14%
C=CC(=O)OCC(CC)CCCC (centres undefined)
  A = nt | B = nt | C = 0.7% | D = 1.1% | E = nt | F = nt
CC1OC1P(=O)(O)O (centres undefined)
  A = nt | B = nt | C = -0.3%[3.08 µM] | D = -2.8% | E = nt | F = 2%
C[C@H](N)[C@@H](O)c1ccccc1
  A = ? | B = ? | C = -1.7%[34.4 µM] | D = -0.3%[34.4 µM] | E = i | F = 0%[17.1 µM]
CNC(C)[C@@H](O)c1ccccc1 (some centres undefined)
  A = nt | B = nt | C = -5.1%[3.08 µM] | D = -5.2% | E = nt | F = 7%
CC(NC(C)(C)C)C(=O)c1cccc(Cl)c1 (centres undefined)
  A = i | B = i | C = -1.3%[3.08 µM] | D = -2.5% | E = i | F = 11%
CCCCCCCCCCCCCCCC[n+]1ccccc1
  A = nt | B = nt | C = 0.0%[3.08 µM] | D = -1.1%&-1.7% | E = nt | F = -9%
O=C(Cl)/C=C/C(=O)Cl
  A = nt | B = nt | C = -1.4% | D = 1.2% | E = nt | F = nt
C=C(C)c1ccccc1 (tested in a mixture with another compound)
  A = i | B = ? | C = -2.3%[15.4 µM] | D = 1.3%[15.4 µM] | E = i | F = nt
C/C=C\c1ccc(OC)cc1
  A = nt | B = nt | C = -2.6% | D = -0.8% | E = nt | F = -4%
O=Cc1ccc2c(c1)OCO2
  A = nt | B = nt | C = 0.1% | D = -0.7% | E = nt | F = nt
Cc1ccc(N)c(C)c1
  A = nt | B = nt | C = -1.4% | D = 2.2% | E = nt | F = nt
O=C(O)c1cc[c]([Hg][Cl])cc1
  A = i | B = i | C = -1.1% | D = 1.5% | E = i | F = 1%

Part of the list above, with each value named:
> C=CCc1ccc(OC)cc1
  TexasRed autofl = nt
  Fluorescein autfl = nt
  BRCT PPI green = -3.3%[3.08 µM]
  BRCT inh red = 0.8%
  Rhodamine autofl = nt
  USP2a inh = -14%
> C=CC(=O)OCC(CC)CCCC (centres undefined)
  TexasRed autofl = nt
  Fluorescein autfl = nt
  BRCT PPI green = 0.7%
  BRCT inh red = 1.1%
  Rhodamine autofl = nt
  USP2a inh = nt

More structures:
Short forms – A = TexasRed autofl; B = Fluorescein autfl; C = BRCT PPI green; D = BRCT inh red; E = Rhodamine autofl; F = USP2a inh
Cc1ccc(N2C(=O)NC(=O)C3(Cc4ccccc4N4CCCC43)C2=O)cc1 (centres undefined)
  A = i | B = ? | C = -0.6% | D = -0.9% | E = i | F = 23%
N#CC(Cl)(Cl)Cl
  A = nt | B = nt | C = 1.8% | D = -1.0% | E = nt | F = nt
CCCCn1c(N)c(C(=O)NCCN2CCOCC2)c2nc3ccccc3nc21
  A = i | B = ? | C = -2.8% | D = -1.1% | E = i | F = 44%[activator]
CC(=O)N1CCN(c2ccc(OCC3CO[C@@](Cn4ccnc4)(c4ccc(Cl)cc4Cl)O3)cc2)CC1 (some centres undefined)
  A = nt | B = nt | C = 0.7%[3.08 µM] | D = -0.5% | E = nt | F = 42%[activator]
O=c1ccc2cc(OC3OC(CO)C(O)C(O)C3O)c(O)cc2o1 (centres undefined)
  A = nt | B = nt | C = -0.6% | D = -0.5% | E = nt | F = nt
CN1CC(CNC(=O)OCc2ccccc2)CC2c3cccc4c3c(cn4C)CC21 (centres undefined)
  A = nt | B = nt | C = -2.1%[3.08 µM] | D = 1.0% | E = nt | F = 35%[activator]
CCCCC(CC)COC(=O)CCCCC(=O)OCC(CC)CCCC (centres undefined)
  A = nt | B = nt | C = 1.1% | D = 1.6% | E = nt | F = nt
CCCCC/C=C\C/C=C\C/C=C\C/C=C\CCCC(=O)NCC(=O)O
  A = i | B = ? | C = 1.6% | D = 2.6% | E = i | F = 26%
C[C@@H]1O[C@H](O[C@H]2C[C@@H](O)[C@@]3(CO)[C@H]4[C@@H](O)C[C@]5(C)[C@@H](C6=CC(=O)OC6)CC[C@]5(O)[C@H]4CC[C@]3(O)C2)[C@@H](O)[C@H](O)[C@@H]1O
  A = i | B = i | C = 0.2%[34.4 µM] | D = 0.0%[34.4 µM] | E = i | F = 8%[17.1 µM]
CC(=O)N1CCN(c2ccc(N=Cc3c(O)n(Cc4ccccc4)c(=O)[nH]c3=O)cc2)CC1
  A = i | B = 1.9e-08M* | C = 2.1% | D = 0.1% | E = i | F = 53%[activator]
CC(C)(C)c1cc(O)ccc1O
  A = i | B = ? | C = 1.7%[15.4 µM] | D = -1.5%&-1.2% | E = i | F = nt
O=C(CSc1ccccc1)N1CCC2(CC1)OCCO2
  A = i | B = i | C = -3.8% | D = 2.0% | E = i | F = 8%
BrCC(Br)(Br)Br
  A = nt | B = nt | C = -1.1% | D = 1.1% | E = nt | F = nt
O=C(O)C(Br)Br
  A = nt | B = nt | C = 1.4% | D = -0.2% | E = nt | F = nt
Oc1ccc(Cl)cc1Cl
  A = nt | B = nt | C = -2.1% | D = -0.7% | E = nt | F = nt

Results in BRCT PPI green and Rhodamine autofl, for some of the entries so far:
Compound | BRCT PPI green | Rhodamine autofl
CCCCC/C=C\C/C=C\C/C=C\C/C=C\CCCC(=O)NCC(=O)O | 1.6% | i
CC(=O)N1CCN(c2ccc(N=Cc3c(O)n(Cc4ccccc4)c(=O)[nH]c3=O)cc2)CC1 | 2.1% | i

Looked up above.
Cc1ccc(N2C(=O)NC(=O)C3(Cc4ccccc4N4CCCC43)C2=O)cc1 (centres undefined) @ BRCT PPI green: -0.6%
N#CC(Cl)(Cl)Cl @ BRCT inh red: -1.0%
O=c1ccc2cc(OC3OC(CO)C(O)C(O)C3O)c(O)cc2o1 (centres undefined) @ BRCT PPI green: -0.6%
CN1CC(CNC(=O)OCc2ccccc2)CC2c3cccc4c3c(cn4C)CC21 (centres undefined) @ USP2a inh: 35%[activator]

Additional results.
Short forms – A = TexasRed autofl; B = Fluorescein autfl; C = BRCT PPI green; D = BRCT inh red; E = Rhodamine autofl; F = USP2a inh
CC(N)[C@H](O)c1ccccc1 (some centres undefined)
  A = nt | B = nt | C = -0.3% | D = -0.4% | E = nt | F = -3%
CCOC(=O)c1c(N)n(CCN2CCCCC2)c2nc3ccccc3nc12
  A = i | B = i | C = 0.5% | D = 0.4% | E = i | F = 12%
CCN(CC)/[N+]([O-])=N/O
  A = nt | B = nt | C = -1.4%[3.08 µM] | D = 0.7% | E = nt | F = -11%
O=C1c2ccccc2-c2cccc3cccc1c23
  A = nt | B = nt | C = -1.4%[3.08 µM] | D = -0.8% | E = nt | F = 1%
CNC(C)[C@H](O)c1ccccc1 (some centres undefined)
  A = nt | B = nt | C = -3.8%[3.08 µM] | D = -0.4% | E = nt | F = -14%
C/C=C/C=O
  A = nt | B = nt | C = -1.2% | D = 1.6% | E = nt | F = nt
CC1=C2C3OC(=O)C(C)C3CC[C@@]2(C)C=CC1=O (some centres undefined)
  A = nt | B = nt | C = -1.7% | D = 0.5% | E = nt | F = -6%
COc1cc2c3cc1Oc1c(OC)c(OC)cc4c1C(Cc1cccc(c1)Oc1ccc(c(O)c1)CC3N(C)CC2)N(C)CC4 (centres undefined)
  A = nt | B = nt | C = 0.9%[3.08 µM] | D = -0.4% | E = nt | F = -2%
CN(C)C(=S)SSC(=S)N(C)C
  A = nt | B = nt | C = -5.9% | D = -0.7% | E = nt | F = 2%
Cc1cc(SCc2sc(-c3ccc(C(F)(F)F)c(F)c3)nc2C)ccc1OCC(=O)O
  A = nt | B = nt | C = 0.5% | D = 1.0% | E = nt | F = nt
Cc1cc(C)c(N)cc1C
  A = nt | B = nt | C = -2.0% | D = 1.3% | E = nt | F = nt
C[N+](C)(C)CC(=O)[O-]
  A = nt | B = nt | C = 0.3%[3.08 µM] | D = -1.8% | E = nt | F = 22%
ClC(Cl)C(Cl)Cl
  A = nt | B = nt | C = 0.5% | D = 0.2% | E = nt | F = nt
Nc1ccc(Cc2ccc(N)c(Cl)c2)cc1Cl
  A = nt | B = nt | C = -0.3% | D = 1.5% | E = nt | F = nt
Nc1ccc([N+](=O)[O-])cc1
  A = nt | B = nt | C = 0.7% | D = -1.9% | E = nt | F = nt
CN1C[C@H](C(=O)N[C@]2(C)O[C@@]3(O)[C@@H]4CCCN4C(=O)[C@H](Cc4ccccc4)N3C2=O)C=C2c3cccc4[nH]cc(c34)C[C@H]21
  A = nt | B = nt | C = ? | D = -9.1% | E = nt | F = nt
COc1ccc(C=O)cc1OC
  A = nt | B = nt | C = -0.8% | D = -0.8% | E = nt | F = nt
O=c1ccc2cc(O[C@H]3OC(CO)C(O)C(O)C3O)c(O)cc2o1 (some centres undefined)
  A = nt | B = nt | C = -2.5%&-3.5%[3.08 µM] | D = 0.6%&-1.1% | E = nt | F = 0%&-13%

This is a subset, so the mix of outcomes need not match the whole.
